Compound activity deposited in PubChem by Southern Research Institute.
Mtb growth = Mycobacterium tuberculosis H37Rv growth inhibition, cell based, confirmatory dose response (AID 1949) | most inactive calls were filed without a number and no value below 0 was filed | 1.6% of 100,000 active | M. tuberculosis H37Rv growth inhibition | inhibition, % at 10 µg/mL, or IC50 in µg/mL where a hit was titrated;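 active means confirmed in a dose series; inconclusive means about 50% or more but not retested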;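 further: bacteria grown 7 days with compound before Alamar blue readout; 0% = untreated bacteria and 100% = reference antibiotic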
The depositor's hits bear a star; i = inactive; ? = inconclusive. These rows are one share of the data, so the mix of outcomes need not match the whole.

SMILES | Mtb growth
O=C(NCc1ccccc1)/C(=C\c1cccs1)NC(=O)c1ccccc1 | i
CC1(C)CC(NC(=O)NC23CC4CC(CC(C4)C2)C3)CC(C)(C)N1 | i
N#CC1=C(N)Oc2n[nH]c(-c3ccccc3)c2C1c1cccc(OC(=O)N2CCOCC2)c1 (stereo unspecified) | i
COc1ccc2nc(/C(C#N)=C\c3ccc(C(=O)O)cc3)[nH]c2c1 | i
COc1ccc(CNC(=S)Nc2cc(OC)cc(OC)c2)cc1 | 1%
S=C(NCc1ccco1)Nc1cnc2ccccc2c1 | i
CCOC(=O)c1c(NC(=O)c2cccc(OC(C)=O)c2)sc(C)c1C | i
CN(C)C(=O)c1cc(S(=O)(=O)N(C)C)c(Cl)cc1N1CCCC1 | i
O=C(Nc1cccc(C(F)(F)F)c1)c1ccc(F)c(F)c1 | 47%
NS(=O)(=O)c1ccc(CCNC(=O)Cc2ccc(Cl)cc2)cc1 | i
CN1C(=O)C(=Cc2cccn2-c2ccc(I)cc2)C(=O)N(C)C1=O | i
Cc1cccc(OCC(=O)Nc2ccc(Cl)cn2)c1 | i
Cc1cc(=O)oc2ccc(OCC(=O)NCc3ccco3)cc12 | i
CCC(CC)NC1CCN(Cc2ccccc2)CC1 | i
Cc1cc(C(=O)N2CCN(S(=O)(=O)c3cccs3)CC2)no1 | 0%
COc1ccc(C)cc1-n1c(-c2ccc(Cl)cc2)n[nH]c1=S | 1%
CCOC(=O)C1CCN(C(=O)Nc2ccc3c(c2)nc(C)n3C)CC1 | i
COc1ccc(CNC(=O)c2cc(SC)ccc2Cl)cc1OC | i
O=C(Nc1ccc(F)cc1)c1sc2cc(Br)ccc2c1Cl | i
c1ccc(-c2csc(N3CCN(c4ncccn4)CC3)n2)cc1 | i
c1ccc(OCCCSc2nc3ccccc3[nH]2)cc1 | 3%
CCOC(=O)c1ccc(Oc2cc(C)nc(SC)n2)cc1 | i
Cn1cnc2cc(NCc3ccc(Br)cc3)ccc21 | i
c1ccc(COc2ccc(OCCN3CCCCC3)cc2)cc1 | i
CCN(CC)S(=O)(=O)c1ccc(OC)c(NC(=O)Cc2cccs2)c1 | i
Cc1ccc(OCC(=O)Nc2ccc(Br)cc2C(=O)O)cc1C | i
CCN(CC)C(=O)C(=O)Nc1ccc(C(F)(F)F)cc1 | i
CCCCc1cc(=O)oc2cc(OCc3cccc(OC)c3)ccc12 | i
COc1ccc(Cl)cc1NS(=O)(=O)c1cc(C)ccc1OC | i
O=C(Nc1ccccc1N1CCN(C(=O)c2ccccc2)CC1)c1cc2ccccc2o1 | i
COc1cc(C(=O)NC(=S)Nc2cccc(Cl)c2N2CCCCC2)cc(OC)c1OC | 8%
O=C(NCCCc1ccccc1)c1cccc(Cl)c1 | i
CC1CCCCN1S(=O)(=O)c1cccc2nonc12 (stereo unspecified) | 4%
COc1ccc(C(=O)N2C(CC(=O)Nc3ccccc3C)C(=O)NC3CCCCC32)cc1 (stereo unspecified) | i
COc1ccc(-c2cc(C(F)(F)F)nc(SCC(=O)N3CCCC3)n2)cc1 | i
COC(=O)N1CCN(c2ccc(C(C)=O)cc2)CC1 | i
CCOC(=O)c1c(NC(=O)C2CCC2)sc(C(=O)Nc2ccccc2C)c1C | 1%
Cc1ccc(N2CCN(C(=O)CN3C(=O)c4ccccc4C3=O)CC2)cc1 | i
CSc1ccc(S(=O)(=O)NCCSC2CCCCC2)cc1 | 3%
O=C1OC(C(=O)Nc2cccc(C(F)(F)F)c2)Cc2ccccc21 (stereo unspecified) | i
COc1cc([N+](=O)[O-])ccc1NC(=O)c1c(F)c(F)c(F)c(F)c1F | ?
c1ccc2c(OCCCN3CCCC3)cccc2c1 | i
CCc1cc(Br)ccc1NC(=S)NCCc1ccc(OC)c(OC)c1 | i
COc1ccc(-c2c(C)n([O-])cc(-c3ccccc3)[n+]2=O)cc1 | i
Nc1nnc(-c2c(F)cccc2F)s1 | i

As a working copy, 4 of the compounds above.
SMILES | Mtb growth
COc1cc(C(=O)NC(=S)Nc2cccc(Cl)c2N2CCCCC2)cc(OC)c1OC | 8%
O=C(NCCCc1ccccc1)c1cccc(Cl)c1 | i
CC1CCCCN1S(=O)(=O)c1cccc2nonc12 (stereo unspecified) | 4%
COc1ccc(C(=O)N2C(CC(=O)Nc3ccccc3C)C(=O)NC3CCCCC32)cc1 (stereo unspecified) | i

(next part)
SMILES | Mtb growth
COc1ccc([N+](=O)[O-])cc1NC(=O)Cc1ccc(C)cc1 | i
COc1ccc(Br)cc1CSCCC#N | i
COc1ccccc1C(=O)CC1(O)C(=O)N(Cc2ccc(Cl)cc2)c2ccccc21 (stereo unspecified) | 1%
COc1ccc(Cl)cc1N(CC(=O)Nc1ccccc1F)S(C)(=O)=O | i
CCOc1ccc(N(CC(=O)Nc2ccccc2C(F)(F)F)S(C)(=O)=O)cc1 | 2%
CCOc1ccc(CC(=O)NNC(=O)NC2CCCCC2)cc1 | i
Cc1ccc(Nc2nc(N)nc(CSc3nccn3C)n2)c(C)c1 | i
CCOC(=O)c1ccccc1NC(=O)COC | i
O=C(Nc1ccc(I)cc1C(=O)Nc1ccncc1)c1ccccc1Cl | i
Cc1cc(Br)ccc1OCC(=O)N1CCN(c2ccccc2)CC1 | i
CC(C)(C)c1ccc(NC(=O)Nc2ccccc2[N+](=O)[O-])cc1 | 44%
O=C(Nc1ccon1)c1cccc(S(=O)(=O)N2CCCC2)c1 | 1%
O=C(O)CC(NC(=O)c1ccccc1NC(=O)c1ccccc1)C(=O)O (stereo unspecified) | i
O=C(c1cccs1)N1CCCC(c2ccccc2)C1 (stereo unspecified) | i
CCCC(=O)N(c1nc(-c2ccc(OCC)cc2)c(CCC)s1)c1ccc(OC)cc1OC | i
CC(=O)Nc1ccc(S(=O)(=O)Nc2ccc(Oc3cccnc3)cc2)cc1 | i
CC(=O)c1cccc(NC(=S)NC(=O)COc2ccc(Br)c(C)c2)c1 | i
O=C(Nc1ccc(Br)c(C(F)(F)F)c1)c1ccc([N+](=O)[O-])cc1 | i
CNC(=O)/C=C/c1ccc2c(c1)OCO2 | i
O=C(Nc1sc2c(c1C(=O)NC1CCS(=O)(=O)C1)CCCC2)c1ccco1 (stereo unspecified) | i
COc1ccc(N2CC(C(=O)Nc3ccc(Br)c(Cl)c3)CC2=O)cc1 (stereo unspecified) | 3%
COc1ccc(N(CC(=O)Nc2c(C)cc(C)cc2C)S(=O)(=O)c2ccc(C)cc2)cc1Cl | 45%
COc1cc(Br)cc2cc(C(=O)Nc3ccc(Cl)c(Cl)c3)c(=O)oc12 | 11%
COc1ccc(CN2CCN(C(=O)c3ccc(F)cc3)CC2)cc1Br | i
CSc1ncc(Cl)c(C(=O)Oc2ccc(C#N)cc2)n1 | i
CS(=O)(=O)N(CC(=O)Nc1cc(C(F)(F)F)ccc1Cl)c1ccc(Br)cc1 | i
CCOc1cccc(NC(=O)c2ccccc2OC)c1 | 4%
Cc1cc(Cl)ccc1OCC(=O)NC1CCC(NC(=O)COc2ccc(Cl)cc2C)CC1 (stereo unspecified) | i
OCCOCCNc1ncnc2sc(-c3ccccc3)cc12 | i
CC(C)C(=O)Nc1cccc(C(=O)Nc2ccc(Br)cc2F)c1 | 3%

The final four entries of the part before open the next one:
SMILES | Mtb growth
CCOc1cccc(NC(=O)c2ccccc2OC)c1 | 4%
Cc1cc(Cl)ccc1OCC(=O)NC1CCC(NC(=O)COc2ccc(Cl)cc2C)CC1 (stereo unspecified) | i
OCCOCCNc1ncnc2sc(-c3ccccc3)cc12 | i
CC(C)C(=O)Nc1cccc(C(=O)Nc2ccc(Br)cc2F)c1 | 3%
Cc1nc(NC(=O)c2cc3ccccc3o2)ccc1I | i
CCOC(=O)C1CCN(c2nc3c(C)cccn3c(=O)c2C=O)CC1 | 4%
COC(=O)C1=C(C)N(C)C(C)=C(C(=O)OC)C1c1ccc(OCc2ccccc2)c(OC)c1 | i
Cc1ccc2nc(-c3ccc4c(c3)OCO4)cc(C(=O)N3CCN(c4ncccn4)CC3)c2c1 | i
Cc1ccc(C(=O)Nc2ccc(Cl)c(-c3nc4cc(C)ccc4o3)c2)c(C)c1 | 49%
O=C(Nc1nccs1)c1cccc2c1-c1ccccc1C2=O | 2%
Oc1c(C(Nc2ccccn2)c2ccsc2)cc(Cl)c2cccnc12 (stereo unspecified) | 4%
S=C(NCc1ccc(Cl)cc1)Nc1ccn(C23CC4CC(CC(C4)C2)C3)n1 | i
COc1ccc(OC)c(NC(=O)Nc2ccc(Cl)c(C(F)(F)F)c2)c1 | 1.7µg/mL*
O=C(NCC1(c2ccccc2)CCCC1)c1ccccc1[N+](=O)[O-] | i
CCOc1ccccc1N(CC(=O)Nc1ccccc1C)S(=O)(=O)c1ccc(Cl)cc1 | i
Fc1ccccc1NC(=S)N1CCN(Cc2ccc3c(c2)OCO3)CC1 | i
Cc1cccc(/C(N)=N/OC(=O)c2cccc3ccccc23)c1 | 0%
S=c1nc(Cc2ccccc2)[nH]c2ccccc12 | 36%
CCCn1c(SCC(=O)Nc2c(C)cc(Br)cc2C)nnc1-c1ccc(Cl)cc1 | i
Cc1ccc(C(C)C)c(OCCSc2nc(N)cc(N)n2)c1 | 2%
O=C(O)CCN1C2=C(C(=O)CCC2)C(c2ccccc2OCc2cccc(F)c2)C2=C1CCCC2=O | 0%
COC(=O)c1cccc(NC(=O)/C(=C\c2ccc(OC)cc2)NC(=O)c2ccccc2OC)c1 | i
COc1ccccc1N1C(=O)c2cccc3c(N4CCOCC4)c([N+](=O)[O-])cc(c23)C1=O | 5%
CCN(CC)CC(=O)Nc1ccccc1C(=O)Nc1ccccc1 | 4%
O=C(Nc1ccc(OCc2ccccc2)cc1)c1ccc2c(c1)OCO2 | i
Cc1ccc(CNC(=S)NCCCn2nccc2C)cc1 | i
CCOc1ccccc1N(CC(=O)Nc1ccc(C)cc1C)S(=O)(=O)c1ccc(Cl)cc1 | i
CCOC(=O)c1c(NC(=O)c2ccc(C)c(C)c2)sc2c1CCC2 | i
O=C(Nc1nnc(Cc2ccc(Cl)cc2)s1)c1ccccc1I | i
COc1cccc(C(=O)Nc2c(C)cc(C)c(NC(=O)c3cccc(OC)c3)c2C)c1 | i
Brc1ccc(Nc2nc(-c3ccccn3)cs2)cc1 | 0.13µg/mL*
Cc1cccc(-n2c(C)nnc2SCC(=O)Nc2ccc(Br)c(C)c2)c1 | i
O=C(Nc1ccccc1C(=O)NCc1ccco1)c1ccccc1I | 2%
CC1=C(C(=O)Nc2ccc(F)cc2)C(c2ccc(N3CCOCC3)cc2)C2=C(CCCC2=O)N1 (stereo unspecified) | i
O=C(Cc1cccs1)Nc1cccc(C(=O)c2ccccc2)c1 | i
Cc1cc(C)cc(C(=O)Nc2ccncc2)c1 | 1%
O=C(CSCc1ccc([N+](=O)[O-])cc1)Nc1cc(Cl)ccc1Oc1ccccc1 | i
Cn1c(CN2CCCCC2)nc2cc(NS(=O)(=O)c3ccc(Cl)cc3)ccc21 | 2%
OC(COc1ccc2ccccc2c1Br)Cn1cnc2ccccc21 (stereo unspecified) | i
CCN(CC)c1ccc(NC(=O)COc2ccccc2Br)cc1 | i
O=C(Oc1ccc2c3c(c(=O)oc2c1)CCCC3)c1ccccc1 | ?
S=C(c1c[nH]c2ccccc12)N1CCCCC1 | i
Nc1ncnc(Oc2ccccc2F)c1[N+](=O)[O-] | i
Cc1ccc(Cc2cnc(N)s2)cc1Cl | 23%
COC(=O)c1c(NC(=O)CSc2nnc3ccccn23)sc2c1CCC2 | i
COc1ccc(C)cc1N(CC(=O)Nc1ccc(F)c(Cl)c1)S(=O)(=O)c1ccccc1 | i
Cc1cc(SCC(=O)NCc2ccc3c(c2)OCO3)nc2ccccc12 | 5%
CC(=O)Nc1cnn(Cc2ccc(Br)cc2)c1 | i
O=S(=O)(c1cc(C(F)(F)F)ccc1Cl)N1CCCCC1 | i
O=C(O)c1ccccc1-c1cc(C(=O)O)c2cc(Br)ccc2n1 | i
CCCCOc1ccc(S(=O)(=O)Nc2ccc(-c3csc(C)n3)cc2)cc1 | 41%
CCn1ncc(Cl)c1C(=O)Nc1cccc(C)c1C | 2%
CCOC(=O)c1sc(NC=O)c(C(=O)OCC)c1C | i
O=S1(=O)CCC(N(Cc2ccccc2)C(=S)Nc2ccccc2)C1 (stereo unspecified) | 3%
Cc1cccc2nc(-c3cccc([N+](=O)[O-])c3)oc(=O)c12 | i
CN(c1ccc(O)cc1)c1nc(-c2cccnc2)cs1 | i
Cc1ccc(OCCCC(=O)Nc2ccc(OC(C)C)cc2)cc1 | i
O=C(CSc1ccc(Cl)cc1)N1CCN(Cc2ccccc2)CC1 | i
O=C(NCc1ccco1)C(=O)Nc1cc(Cl)ccc1Cl | i
O=C(Nc1ccc(-c2nc3ccccc3s2)cc1)c1c(F)c(F)c(F)c(F)c1F | i
CCOc1ccc(CN2CCC(C(=O)N3CCN(c4ccccc4F)CC3)CC2)cc1 | i
S=C(Nc1ccc2c(c1)OCCO2)Nc1ccc(Br)cc1Cl | i
COc1ccc(OC)c(S(=O)(=O)Oc2cc(C)ccc2C)c1 | i
CCOc1ccccc1N1CCN(S(=O)(=O)c2ccc(C)c(C)c2C)CC1 | i

The final seven records of the section above are carried over, then new ones follow.
SMILES | Mtb growth
O=C(CSc1ccc(Cl)cc1)N1CCN(Cc2ccccc2)CC1 | i
O=C(NCc1ccco1)C(=O)Nc1cc(Cl)ccc1Cl | i
O=C(Nc1ccc(-c2nc3ccccc3s2)cc1)c1c(F)c(F)c(F)c(F)c1F | i
CCOc1ccc(CN2CCC(C(=O)N3CCN(c4ccccc4F)CC3)CC2)cc1 | i
S=C(Nc1ccc2c(c1)OCCO2)Nc1ccc(Br)cc1Cl | i
COc1ccc(OC)c(S(=O)(=O)Oc2cc(C)ccc2C)c1 | i
CCOc1ccccc1N1CCN(S(=O)(=O)c2ccc(C)c(C)c2C)CC1 | i
CCC(=O)Nc1ccc(Cl)c(NC(=O)c2ccc(C)cc2C)c1 | 1%
Cn1nnc2cc(NC(=O)N3CCCCC3)ccc21 | i
Nc1cc(N)nc(SCC(=O)c2ccccc2)n1 | i
NC(=O)CN1C(=O)C(O)(CC(=O)c2ccc3c(c2)OCCO3)c2ccccc21 (stereo unspecified) | i
